GIV Gai3 FP: inhibitors of GIV peptide binding to Galpha-i3, primary screen, biochemical, fluorescence polarization, FITC-GIV GBA peptide, rat Galphai3; 210,000 tested, 0.42% active; percent of control (FP), % (no concentration beside the values); 90 min; active compounds read low; scaled: aluminum fluoride 0%, vehicle 100%; Guanine nucleotide-binding protein G(i) subunit alpha-3 (Rattus norvegicus), P08753;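 active means replicate mean at 85% of control or lower, very high polarization wells dropped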;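 further: wells of about 15 µL received 100 nL stock; the first replicate is given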
Target sequence (P08753 whole entry, looked up): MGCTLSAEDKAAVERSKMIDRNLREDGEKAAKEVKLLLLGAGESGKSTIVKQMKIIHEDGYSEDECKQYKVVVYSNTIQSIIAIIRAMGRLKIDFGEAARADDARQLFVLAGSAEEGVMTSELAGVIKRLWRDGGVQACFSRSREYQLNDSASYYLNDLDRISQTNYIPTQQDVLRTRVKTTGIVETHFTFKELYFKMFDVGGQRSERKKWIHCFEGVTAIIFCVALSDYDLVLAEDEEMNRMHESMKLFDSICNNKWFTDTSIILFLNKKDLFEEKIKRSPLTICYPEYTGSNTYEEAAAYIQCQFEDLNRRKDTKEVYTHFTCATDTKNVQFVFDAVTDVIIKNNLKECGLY
Sa growth 42C: S. aureus growth inhibition at 42 and 30 °C, primary screen, LtaS inhibitor project, RN4220, two temperatures; OD600, 20 h, 42 °C; active compounds read low; relative growth, % (concentration not given with the values); 170,000 tested, 0.53% active; AID 720641, 2013;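 active means growth at 42 °C up to 50% and 20 or more points under that at 30 °C, or under 10% at both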;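 further: 300 nL library stock went into each well; scaled to the means of positive and negative controls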
HCMV UL50-53 inh: inhibitors of HCMV UL50-UL53 interaction, biochemical, HTRF; normalized percent inhibition; inhibition, % (test concentration not listed); 190,000 tested, 0.15% active;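 active means both replicates at 50% or more, plus weaker picks with an unusually low signal ratio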;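 further: stock transfer was 100 nL into about 20 µL; 0% = negative control wells and 100% = wells with untagged competitor protein; inactives centre near -12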
Sa growth 42C second temp: second read-out of Sa growth 42C, no call of its own (marks repeat the call); relative growth, %; measured here: growth at 30 °C;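 optical density after 20 h as mean of two plates; 100% = untreated growth and lower means inhibition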
* hit, by the source's call; . = not tested or not shown.

1	CCn1c(=O)cc(C)n(-c2ccccc2)c1=O
2	CCOC(=O)c1cccc(NC(=O)c2ccc(CN3CC(=O)N4CSCC4C3=O)cc2)c1 (configuration not stated)
3	CN1CCN(Cc2c(O)ccc3c(=O)c(Oc4ccc(C(C)(C)C)cc4)c(C(F)(F)F)oc23)CC1
4	CN(C(=O)COC(=O)c1cc(S(=O)(=O)N2CCCCC2)ccc1N1CCOCC1)C1CCS(=O)(=O)C1 (configuration not stated)
5	CCc1ccc(Nc2cc(C(=O)NCc3cccs3)c3ccccc3n2)cc1
6	COc1cccc(-n2c(C)nc3c(cnn3-c3ccccc3Cl)c2=O)c1

compound no.	1	2	3	4	5	6
Sa growth 42C second temp	.	.	.	96	93	97
HCMV UL50-53 inh	-22	-6	3	1	.	4
GIV Gai3 FP	99	111	108	.	107	98
Sa growth 42C	.	.	.	89	96	47

7	CC(=O)NCc1ccc(C(=O)COC(=O)Cc2n[nH]c(=O)c3ccccc23)o1
8	CC(C(=O)O)N1C(=O)/C(=C/c2ccc(Cl)cc2)SC1=S (configuration not stated)
9	COc1ccc2cc(C#N)c(NC(C)C)nc2c1
10	O=C(N=C1c2ccccc2CN1c1ccc(F)c(Cl)c1)c1ccco1
11	CCC1Oc2ccc(Cl)cc2N(CC(=O)Nc2ccc(CCc3nc4ccccc4[nH]3)cc2)C1=O (configuration not stated)
12	Cc1ccc(Nc2nc3ccccc3c3nnc(C)n23)cc1Cl

compound no.	7	8	9	10	11	12
Sa growth 42C second temp	90	72	92	94	.	90
HCMV UL50-53 inh	-29	.	-3	-24	-30	.
GIV Gai3 FP	.	94	101	.	107	103
Sa growth 42C	72	84	84	109	.	88

Overlap with the part before: four entries, followed by the next part.
9	COc1ccc2cc(C#N)c(NC(C)C)nc2c1
10	O=C(N=C1c2ccccc2CN1c1ccc(F)c(Cl)c1)c1ccco1
11	CCC1Oc2ccc(Cl)cc2N(CC(=O)Nc2ccc(CCc3nc4ccccc4[nH]3)cc2)C1=O (configuration not stated)
12	Cc1ccc(Nc2nc3ccccc3c3nnc(C)n23)cc1Cl
13	CSc1nnc(Nc2ccc(Cl)cc2Cl)s1
14	Cc1nn(-c2ccc(N3CCCCC3)nn2)c(C)c1CCC(=O)NCc1ccc(F)cc1
15	O=C1NC(=Nc2ccccc2)S/C1=C/c1ccc(Cl)cc1
16	COc1ccc(-c2nc(CN3CCC(C(=O)NCc4ccc(C)cc4)CC3)c(C)o2)cc1OC
17	COc1ccc(-c2nc3ncccn3c2Nc2ccccc2)cc1
18	CC1=C(C(=O)Nc2ccccc2C)C(c2ccc[nH]2)n2ncnc2N1 (configuration not stated)

compound no.	9	10	11	12	13	14	15	16	17	18
Sa growth 42C second temp	92	94	.	90	85	90	89	82	93	71
HCMV UL50-53 inh	-3	-24	-30	.	6	.	-27	0	.	.
GIV Gai3 FP	101	.	107	103	107	97	.	105	103	108
Sa growth 42C	84	109	.	88	97	95	115	105	105	74

19	COC(=O)c1ccc(Nc2nc3ccc(Cl)cc3n3cnnc23)cc1
20	O=C1CN(C(=O)c2ccccc2)C(c2ccc(F)cc2)c2cc(Br)ccc2N1 (configuration not stated)
21	O=C(c1cccc(S(=O)(=O)NC2CCCC2)c1)N1CCCc2ccccc21
22	O=C(NC(Cc1nc2ccccc2n1CCO)c1ccccc1)c1ccccc1 (configuration not stated)
23	CC1CCCCN1C(=O)COc1ncnc2ccc(Br)cc12 (configuration not stated)
24	O=C(CCn1cnc2ccccc2c1=O)N1CCN(c2cccc(Cl)c2)CC1

compound no.	19	20	21	22	23	24
Sa growth 42C second temp	88	84	93	90	94	.
HCMV UL50-53 inh	4	-24	-9	-4	-12	-29
GIV Gai3 FP	105	103	99	.	.	96
Sa growth 42C	104	71	89	122	99	.

25	CN1CCN(c2nc3c(c(=O)n(C)c(=O)n3C)n2Cc2c(Cl)cccc2Cl)CC1
26	CC1=C(C(=O)N2CCCC2)C2(CCN(S(=O)(=O)c3cccs3)CC2)OC1=O
27	COc1cc(=O)n(-c2ccccc2)nc1C(=O)Nc1cccc(Br)c1
28	CCC1CCCCN1S(=O)(=O)c1ccc(OC)c(-c2noc(C)n2)c1 (configuration not stated)
29	Fc1ccccc1N1CCN(c2ncnc3onc(-c4cccc(Cl)c4)c23)CC1
30	CCN(CC)c1nc2cc(OC)ccc2cc1C#N

compound no.	25	26	27	28	29	30
Sa growth 42C second temp	.	85	.	.	88	97
HCMV UL50-53 inh	-23	-20	3	-36	-26	-6
GIV Gai3 FP	99	101	99	106	98	101
Sa growth 42C	.	97	.	.	108	97

31	COC(=O)c1c(C)oc2ccc(OCc3ccc(Br)cc3)cc12
32	Cn1nnc2c(NC3CC3)nc(Cc3ccc(Cl)cc3Cl)nc21
33	Cc1ccc(NC(=O)c2ccc(N(Cc3ccccc3)S(C)(=O)=O)cc2)cc1
34	C=CCn1c(=N)n(CC(=O)c2ccc(-c3ccccc3)cc2)c2ccccc21
35	O=C(NCC1CCCO1)c1ccc(NS(=O)(=O)c2ccccc2)cc1 (configuration not stated)
36	Cc1cc2c(cc1S(=O)(=O)N1CCC(C(N)=O)CC1)OCC(=O)N2

compound no.	31	32	33	34	35	36
Sa growth 42C second temp	96	78	93	-0.9*	104	81
HCMV UL50-53 inh	.	-11	-47	.	10	.
GIV Gai3 FP	101	98	102	100	100	99
Sa growth 42C	97	86	104	5.3*	96	103

37	CC(C)Cc1ccc(C(C)C(=O)Nc2cccc(-c3cnco3)c2)cc1 (configuration not stated)
38	O=C(CC1NCCNC1=O)Nc1ccccc1 (configuration not stated)
39	CN(C)CC#Cc1cncc(C#N)c1
40	CCCCCn1c(CCNC(=O)c2cccc(C)c2)nc2ccccc21
41	O=C(Nc1ccc2c(c1)OCO2)N1CCN(Cc2nc3cccnc3n2-c2ccccc2)CC1
42	CCCCN(CCCNC(=O)c1cc(Nc2ccc(OC)cc2OC)nc2ccccc12)Cc1ccccc1

compound no.	37	38	39	40	41	42
Sa growth 42C second temp	90	91	87	84	.	88
HCMV UL50-53 inh	-29	-17	-6	-16	2	-21
GIV Gai3 FP	105	101	100	108	104	102
Sa growth 42C	97	97	110	91	.	97

43	Nc1nc(N)c(S(=O)(=O)c2ccccc2)c(Nc2ccc(F)cc2)n1
44	O=C(O)c1nccnc1C(=O)N1CCN(c2nc3ccc(Cl)cc3s2)CC1
45	CC(=O)N1CCC(N)=N1
46	CC(C)C(NS(=O)(=O)c1ccc2c(c1)oc(=O)n2C)C(=O)N1CCN(c2cccc(Cl)c2)CC1 (configuration not stated)
47	Cc1ccccc1NS(=O)(=O)c1nnc(NC(=O)c2ccc(Cl)cc2)s1
48	Cc1ccc(CCNC(=O)c2ccc(CS(=O)(=O)Cc3ccccc3F)o2)cc1

compound no.	43	44	45	46	47	48
Sa growth 42C second temp	91	92	94	77	84	85
HCMV UL50-53 inh	-20	-18	7	13	-11	.
GIV Gai3 FP	103	101	.	102	104	107
Sa growth 42C	88	97	116	98	98	104

49	N#CC(C(=O)C1CC1)=C1SCCCS1
50	COCCCNC(=O)c1nnc(-c2oc3ccccc3c2C)o1
51	O=c1c2cc(Cl)ccc2nc2n1CCC2
52	CC(CC#N)C(=O)c1ccccc1 (configuration not stated)
53	COc1ccc(N2CCN(Cc3nc(-c4ccc(C)cc4)no3)CC2)cc1
54	O=S(=O)(Nc1ccc(-c2ccc(N3CCCC3)nn2)cc1)c1ccc(Br)cc1

compound no.	49	50	51	52	53	54
Sa growth 42C second temp	83	.	95	91	98	93
HCMV UL50-53 inh	-29	-10	-1	3	-4	.
GIV Gai3 FP	94	109	.	108	109	105
Sa growth 42C	106	.	75	101	106	107

55	Cc1ccc(NCC(O)CN2c3ccccc3Sc3ccccc32)c(C)c1 (configuration not stated)
56	Cc1cccc(-n2ccnc(NCCC3=CCCCC3)c2=O)c1
57	Brc1ccc(-c2csc(/N=C/N3CCCC3)n2)cc1
58	CC(=O)NN=C1CCC(c2ccccc2)CC1 (configuration not stated)
59	Cc1ccc(S(=O)(=O)N(CC(=O)NCCc2ccc(Cl)cc2)c2ccccc2C)cc1
60	Cc1ccc(S(=O)(=O)NN2CCN(C)CC2)s1

compound no.	55	56	57	58	59	60
Sa growth 42C second temp	52	.	95	94	89	104
HCMV UL50-53 inh	.	-20	-54	-28	-13	6
GIV Gai3 FP	105	115	.	.	106	100
Sa growth 42C	97	.	97	101	81	91

61	CCC(=O)N1c2ccccc2NC2=C(C(=O)CC(c3cccc([N+](=O)[O-])c3)C2)C1c1ccc(OC)c(OC)c1 (configuration not stated)
62	Cc1ccc2c(CC(=O)Nc3cc(C(F)(F)F)ccc3Cl)coc2c1C
63	Cc1ccc2c(c1)CCCN2C(=O)NC1CCCCC1
64	COc1ccc(OCc2nc3ccccc3n2CCCOc2ccc(C)cc2)cc1
65	CCOc1cc(CNC(=O)c2cc(-c3ccccc3)n[nH]2)cc(OCC)c1OCC
66	Cc1ccc(CNc2nc3ccc(C)cc3n3nnnc23)cc1

compound no.	61	62	63	64	65	66
Sa growth 42C second temp	.	92	96	.	88	88
HCMV UL50-53 inh	-8	-9	-4	-22	.	-6
GIV Gai3 FP	104	103	109	109	104	104
Sa growth 42C	.	112	109	.	80	94

67	O=C(COC(=O)C1CCCC1)c1ccccc1Br
68	CC(C)CN(CC(C)C)CN1C(=O)c2ccccc2C1=O
69	Cc1nn(CC(C)C)c2sc(C(=O)NC3CC(C)(C)NC(C)(C)C3)cc12
70	CC1(CO)COC(COc2ccccc2)=N1 (configuration not stated)
71	Cn1c2c(c(=O)n(C)c1=O)C(C(=O)Nc1ccc(Cl)c(Cl)c1)CC(=O)N2 (configuration not stated)
72	COc1ccc(OCC(O)CN2CCC(CN3C(=O)c4cccc5cccc(c45)C3=O)CC2)cc1 (configuration not stated)

compound no.	67	68	69	70	71	72
Sa growth 42C second temp	100	87	98	92	71	.
HCMV UL50-53 inh	-3	-48	-2	4	-11	-52
GIV Gai3 FP	.	.	.	99	102	102
Sa growth 42C	85	81	100	108	91	.

73	O=C(Nc1ccc2c(c1)OCO2)c1cc(-c2cccc(Cl)c2)on1
74	COc1cccc(C(=O)NC(=O)c2ccccc2O)c1
75	COCc1c(Br)c(C)nc2sc3c(=O)n(-c4cccc(Br)c4)nnc3c12
76	COc1ccc(CCC(=O)C2(O)CCCCC2)cc1
77	Cn1c(-c2nnc(SCC(=O)N3CCN(c4ccccc4)CC3)o2)cc2ccccc21
78	Cc1cccc(-c2nnc(-c3ccccc3)o2)c1

compound no.	73	74	75	76	77	78
Sa growth 42C second temp	95	73	93	83	.	59
HCMV UL50-53 inh	-5	-19	-14	-20	-6	-23
GIV Gai3 FP	98	101	100	100	95	99
Sa growth 42C	103	90	109	94	.	78

79	Cc1ccc(NC(=O)Cn2nc(-c3ccc(Cl)cc3)c3ccccc3c2=O)cc1
80	COc1ccc(-c2cc3nc(C)c(CCC(=O)Nc4ccc(F)cc4F)c(C)n3n2)c(OC)c1
81	CCCOC(=O)C1=C(C)OC23OC(N)=C(C#N)C12C(=O)c1ccccc13 (configuration not stated)
82	COC(=O)c1c(C)oc(C)c1S(=O)(=O)NCc1ccco1
83	Cc1ccc(/C=C(\C#N)C(=O)NCCc2ccccc2)o1
84	O=C(/C=C/c1ccccc1)N1CCOCC1

compound no.	79	80	81	82	83	84
Sa growth 42C second temp	94	97	66	85	95	121
HCMV UL50-53 inh	-32	-42	-10	-37	-68	-10
GIV Gai3 FP	101	101	101	106	.	109
Sa growth 42C	97	101	100	98	94	98

4 structures already listed, ordered by length of the SMILES, lowest first:
84	O=C(/C=C/c1ccccc1)N1CCOCC1
78	Cc1cccc(-c2nnc(-c3ccccc3)o2)c1
81	CCCOC(=O)C1=C(C)OC23OC(N)=C(C#N)C12C(=O)c1ccccc13 (configuration not stated)
80	COc1ccc(-c2cc3nc(C)c(CCC(=O)Nc4ccc(F)cc4F)c(C)n3n2)c(OC)c1

compound no.	84	78	81	80
Sa growth 42C second temp	121	59	66	97
HCMV UL50-53 inh	-10	-23	-10	-42
GIV Gai3 FP	109	99	101	101
Sa growth 42C	98	78	100	101

Other structures:
85	CCCNC(=O)Nc1ccc(-c2noc(C3CC(=O)N(c4cccc(Cl)c4)C3)n2)cc1 (configuration not stated)
86	O=S(=O)(c1ccc(F)c(Cl)c1)N1CCC2(CC1)Nc1ccccc1-n1cccc12
87	O=C(Nc1ccc(C(F)(F)F)cc1)Nc1ccc(C(F)(F)F)cc1
88	O=S(=O)(NCCc1nnc2ccc(SCc3c(F)cccc3Cl)nn12)c1ccccc1
89	Cc1sc2nc[nH]c(=O)c2c1C
90	NS(=O)(=O)c1ccc(NC(=O)Cn2cnc(S(=O)(=O)N3CCCC3)c2)cc1
91	O=C(Nc1nc2c(F)cccc2s1)c1ccc(S(=O)(=O)N2CCCc3ccccc32)cc1
92	CC(C)(C)NCC(O)COc1c(Br)ccc2c1sc1nc3n(c(=O)c12)CCCCC3 (configuration not stated)
93	Cc1ccccc1-n1ncc2c(SCC(=O)Nc3ccc(N4CCCC4)cc3)ncnc21

compound no.	85	86	87	88	89	90	91	92	93
Sa growth 42C second temp	.	.	6	71	90	.	91	102	.
HCMV UL50-53 inh	-24	13	2	.	-7	4	.	11	17
GIV Gai3 FP	107	103	107	101	.	106	96	.	99
Sa growth 42C	.	.	15	102	94	.	91	98	.
